YopH inh: inhibitors of Yersinia enterocolitica YopH tyrosine phosphatase; fluorescence Ex485/Em525; inhibition, %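 (about 10 µM by stock and volumes)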; 0.16% of 140,000 active;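 active = inhibition of 50% or more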;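 note: controls were vehicle for no effect and minimum signal wells for full effect; inactives centre near -20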
Mtb growth: M. tuberculosis H37Rv growth inhibitors, H37Rv strain (AID 1626); M. tuberculosis H37Rv growth inhibition; higher % means a stronger effect; one-dose inhibition, % at 10 µM; IC50 in µM for titrated hits; 0.95% of 220,000 active;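 active = confirmed in a dose series; inconclusive = inhibition above 80% but not taken into the dose series; inactive = below 80% or under 30% at every dose of the series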;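 note: bacteria incubated seven days before Alamar blue readout; 0% = bacteria only wells and 100% = bacteria with antibiotic wells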
Arbovirus inh: antivirals against arbovirus infection; inhibition, % at 10 µM; 0.37% of 200,000 active; AID 1251; arbovirus infection cell-based antiviral screen;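 active = inhibition from about 30%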;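 note: bluetongue infection of BSR cells; cell survival read as ATP light after 72 h; 0% = infected wells without compound and 100% = uninfected wells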
RecA splice inh: blocks M. tuberculosis RecA intein splicing; P9WHJ3; cell-free RecA intein splicing, fluorescence; inhibition, %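 (about 9 µM by stock and volumes)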; 0.75% of 290,000 active; in the data active = inhibition above about 30%; inconclusive = no clear call, values can overlap the other calls;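 note: 0% = vehicle wells and 100% = reference inhibitor control wells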
Target sequence (P9WHJ3 whole entry, looked up, canonical isoform): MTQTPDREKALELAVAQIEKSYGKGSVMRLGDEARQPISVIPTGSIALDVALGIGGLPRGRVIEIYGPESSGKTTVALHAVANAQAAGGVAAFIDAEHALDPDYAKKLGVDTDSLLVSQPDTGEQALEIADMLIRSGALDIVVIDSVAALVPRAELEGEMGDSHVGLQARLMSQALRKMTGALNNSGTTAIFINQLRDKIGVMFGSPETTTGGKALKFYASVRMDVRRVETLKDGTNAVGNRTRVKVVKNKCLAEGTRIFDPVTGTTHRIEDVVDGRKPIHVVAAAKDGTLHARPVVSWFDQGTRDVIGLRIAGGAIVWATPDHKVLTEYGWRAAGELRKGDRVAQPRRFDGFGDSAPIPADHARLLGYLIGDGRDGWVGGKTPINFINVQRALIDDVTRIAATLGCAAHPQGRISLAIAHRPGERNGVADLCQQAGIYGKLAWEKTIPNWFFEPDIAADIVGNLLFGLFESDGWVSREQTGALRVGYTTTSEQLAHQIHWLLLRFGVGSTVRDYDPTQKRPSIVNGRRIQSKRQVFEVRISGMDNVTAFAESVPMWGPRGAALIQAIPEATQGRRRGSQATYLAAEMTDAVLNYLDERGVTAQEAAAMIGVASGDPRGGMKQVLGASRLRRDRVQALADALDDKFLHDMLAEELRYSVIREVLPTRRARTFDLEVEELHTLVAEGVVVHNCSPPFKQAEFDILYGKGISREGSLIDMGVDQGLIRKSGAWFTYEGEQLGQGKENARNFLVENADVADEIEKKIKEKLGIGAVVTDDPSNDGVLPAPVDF
Mtb betalactam: beta-lactam sensitization of Mtb H37Rv; M. tuberculosis H37Rv growth with meropenem, percent inhibition; hits of this screen are not shown here; inhibition, % at 25 µM; 0.27% of 330,000 active;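 active = about 74% or more and at least 40 points above the plate without the antibiotic, then above 30% in a dose series; inconclusive = first-round hits that could not be retested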;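 note: growth measured after seven days incubation then overnight dye step; 0% = bacteria only wells and 100% = bacteria with antibiotic; twin plates without the antibiotic show which effects depend on it; some results filed as inactive read as strong as hits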
Arbovirus inh repeat: second read-out of Arbovirus inh, no call of its own (marks repeat the call); inhibition, %; measured here: 10K subset replicate screen; many hits read low in the repeat;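 first of two repeat runs on a subset; 0% = infected and 100% = uninfected wells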
Numbers without * were called inactive; ? = inconclusive; · = no result given. An excerpt. The share of hits here may be higher or lower than overall.

SMILES	YopH inh	Mtb growth	Arbovirus inh	RecA splice inh	Mtb betalactam	others
Cc1cccc(OCC(=O)N2CCN(C(=O)CCC3CCCC3)CC2)c1	-36.5	-0.8%	-2.1	-1.1	-2.6
CN(C)CCNc1nc(-c2ccccc2)c2c(c1C#N)CC(C)(C)OC2	16.1	-5.9%	-9.5	-0.7	-4.0
COC(=O)Cn1ncc2c3ccccc3n(Cc3ccccc3)c2c1=O	-14.0	-3.0%	0.2	-1.7	?
N#Cc1ccc(C(=O)Nc2nc(SCc3ccc(Cl)cc3)n[nH]2)cc1	·	-3.5%	-9.3	-1.4	1.7
CCC(O)(CC)C(=O)NN(C(=O)Nc1csc2c1CCCC2)c1ccccc1	-34.9	1.1%	-22.1	-0.6	1.7
Cc1ccccc1CNC(=O)c1ccccc1C(=O)O	-5.0	5.3%	-3.6	0.9	3.0
Cc1cc(/C=C2\SC(=O)N(C)C2=O)c(C)n1-c1cccc(C(=O)O)c1	·	·	·	0.9	-0.5
Cn1cccc1Cc1nnc(SCC(=O)Nc2ccccc2)n1-c1ccc(F)cc1	-10.5	1.2%	-5.4	4.7	-5.6
Cc1cccc(Nc2c3c(nc4ncnn24)CCC3)c1	·	-4.2%	-1.9	5.1	-1.6
N/C(=N\OC(=O)CC1CCCCC1)c1ccncc1	·	-5.9%	5.0	-2.8	-0.2
CC(C)c1ccc(/C=C/C(=O)Nc2nn[nH]n2)cc1	·	1.3%	-2.7	-1.9	9.2
O/N=C/c1cc2ccccc2n1Cc1ccccc1F	·	·	·	0.4	1.4
Oc1ccc(C[C@H]2CNCCN2CCCCC2CCCCC2)cc1	·	·	·	0.9	59.5
CCc1ccc2nc(N3C(=O)c4oc5ccccc5c(=O)c4C3c3ccc(OC)c(OC)c3)sc2c1 (stereo unspecified)	-4.3	-3.4%	0.5	2.0	-0.4
CC(C)=CCCC(C)CN1CCC(n2nccc2NC(=O)c2cccnc2)CC1 (stereo unspecified)	·	·	·	-4.2	-10.2
Cc1ccc(C(=O)NC(=S)Nc2cc(-c3nc4ccccc4s3)ccc2C)cc1	-35.8	·	-14.2	1.2	4.2
COCCCn1c(SCC(=O)Nc2ccccc2)nnc1-c1ccncc1	-85.7	1.2%	-1.0	0.1	-0.8
COc1ccc(CNC(=O)CN(C(=O)CCC(=O)Nc2nccs2)c2ccc3c(c2)OCO3)cc1	·	·	·	1.3	-3.9
COc1ccc(C(=O)NCc2ccc3c(c2)OCO3)cc1S(=O)(=O)N(C)Cc1ccccc1	-14.3	-3.2%	-2.0	3.7	-1.8
COc1cc(C(=O)O)ccc1OC(C)=O	-42.0	-13.9%	-0.5	-0.1	6.6

The last 2 compounds of the part above lead into the next:
SMILES	YopH inh	Mtb growth	Arbovirus inh	RecA splice inh	Mtb betalactam	others
COc1ccc(C(=O)NCc2ccc3c(c2)OCO3)cc1S(=O)(=O)N(C)Cc1ccccc1	-14.3	-3.2%	-2.0	3.7	-1.8
COc1cc(C(=O)O)ccc1OC(C)=O	-42.0	-13.9%	-0.5	-0.1	6.6
CCN(CC(=O)Nc1ccc(NC(C)=O)cc1)C(=O)C1CC(=O)N(Cc2ccc(C)cc2)C1 (stereo unspecified)	·	·	·	-1.8	-8.8
O=C(CCNS(=O)(=O)c1ccccc1C(F)(F)F)NCCCSc1ccccc1	·	·	·	-0.5	-31.5
Cc1ccc(NC(=O)CCCCCC2NC(=O)NC2C)cc1 (stereo unspecified)	0.7	-5.7%	17.4	-1.4	-4.9
Cn1c(=O)cc(Nc2ccc(Cl)cc2)[nH]c1=O	·	·	·	-0.4	-0.6
COc1ccc(OC)c(NC(=O)CCCNC(=O)c2ccc(Cl)cc2)c1	·	·	·	0.4	-3.2
Cc1ccc(CSc2nnc(-c3ccc4c(c3)OCO4)o2)cc1	-18.2	71.1%	14.3	1.4	82.5
CC1(C)C(c2ccc(Cl)cc2)=[N+]([O-])C2(CCCC/C2=N\O)N1O (stereo unspecified)	-42.0	2.1%	2.1	-2.6	-5.6	Arbovirus inh repeat=1.3
Cc1cccc(-c2noc(-c3ccccc3C(=O)NCc3ccco3)n2)c1	·	4.3%	·	0.7	4.7
Cc1nnc(SCC(=O)NC2CCCCC2)n1C1CCCCC1	-38.6	-2.4%	1.8	1.6	-2.1
CC(C(=O)Nc1cc([N+](=O)[O-])ccc1Cl)N1CCN(c2ccc(O)cc2)CC1 (stereo unspecified)	-9.9	-2.3%	-20.4	1.3	2.4
COc1ccc(CC(=O)Nc2ccc(S(=O)(=O)Nc3cc(C)on3)cc2)cc1	-7.0	-10.0%	7.1	0.4	-0.4
Fc1ccc(C(CNC(=S)NC2CCCCC2)N2CCOCC2)cc1 (stereo unspecified)	·	-2.6%	-2.9	0.7	-5.4
O=C(O)/C=C/C(=O)Nc1ccc2c(c1)C(=O)c1ccccc1C2=O	·	-9.7%	·	11.8	-3.1
COc1nc(-c2ccccc2)cc(-c2ccc(OC)c(OC)c2)n1	-12.8	61.9%	-6.3	9.0	97.5
Brc1ccc(-c2noc(COc3ccc4ccccc4c3)n2)o1	-21.3	13.2%	-4.5	2.1	0.9
CCCCn1c(SCC(=O)c2ccccc2)nc2ccsc2c1=O	19.4	1.3%	-2.1	2.3	-0.6
Cn1/c(=N/N=C/c2ccc(Cl)c([N+](=O)[O-])c2)sc2ccccc21	-27.5	·	-1.9	1.0	-1.8
Cc1cc(N2CC(C(=O)O)CC2=O)ccc1Br (stereo unspecified)	-35.5	-9.1%	-4.6	-4.4	-1.4
COc1ccccc1C(=O)COC(=O)CNS(=O)(=O)c1ccc(NC(C)=O)cc1	·	·	·	3.1	-4.0
O=C(COC(=O)CN1C(=O)C2CCCCC2C1=O)NC1CCS(=O)(=O)C1 (stereo unspecified)	-29.1	7.9%	5.5	2.4	7.5
CCOC(=O)c1ccc(NC(=S)NN2CCOCC2)cc1	-8.5	46.5%	1.4	0.3	4.8
CC(C)(C)NC(=O)NC(=O)CN1CCN(c2ccccc2)CC1	·	11.9%	8.0	1.7	0.4
NS(=O)(=O)c1ccc(CCNC(=O)Cc2ccc(S(=O)(=O)N3CCOCC3)s2)cc1	·	·	·	4.8	-10.4
CC(=O)Cn1c(CN2CC(C)CC(C)C2)nc2c1c(=O)n(C)c(=O)n2C (stereo unspecified)	-24.3	-6.7%	-2.9	0.9	-3.4
Cc1ccc(SCC(=O)OC(C)C(=O)Nc2ccc(S(N)(=O)=O)cc2)cc1C (stereo unspecified)	·	·	·	-2.7	2.2
CCCCNCCOCCOc1ccc(F)cc1	-41.6	3.7%	0.9	-2.8	-0.6
Cc1cc(C(F)F)n2nc(C(=O)NCc3ccccc3F)nc2n1	-11.0	3.4%	4.3	-0.7	-11.0
Cc1ccc(N(CC(=O)NCc2ccco2)C(=O)CCC(=O)Nc2nccs2)cc1	·	·	·	1.0	-6.5
O=C(COc1ccc(S(=O)(=O)Nc2ccccc2)cc1)NCc1ccccn1	·	·	·	-0.2	2.7
Cn1c(=O)[nH]c(=O)c2c1nc1n2CCCN1Cc1ccccc1	·	2.2%	·	1.3	-11.0
O=C(Cc1ccccc1)Nc1ccc2oc(-c3ccncc3)nc2c1	-31.5	4.6%	-1.5	2.0	4.2
COc1ccc(C)cc1NC(=O)CCNS(=O)(=O)c1cccc(C(F)(F)F)c1	·	·	·	-1.4	2.9
Cc1cc(OC(F)F)ccc1NC(=O)Nc1ccc([N+](=O)[O-])cc1	-21.2	?	17.8	0.4	14.5
O=C(Cn1nnc2ccccc2c1=O)Nc1cc(C(F)(F)F)ccc1N1CCOCC1	-27.0	-6.8%	3.2	1.2	4.8
CN1C(=O)C(N=Nc2ccccc2C(=O)O)N(C)C1=S (stereo unspecified)	·	2.1%	20.7	0.5	6.4
CC(=O)c1cccc(NC(=O)NC(C)c2ccncc2)c1 (stereo unspecified)	-43.1	0.1%	-3.5	0.7	-10.5
CCOC(=O)CNC(=O)CSc1nc(N(C)C)nc(N2CCOCC2)n1	-20.8	-1.8%	2.1	-17.6	-5.2
CC(C)c1ccc(NC(=S)NN2C(C)CCCC2C)cc1 (stereo unspecified)	·	-10.6%	11.9	0.4	2.9
COc1ccc(-c2noc(CCC(=O)NCCCN3CCN(c4ccccc4F)CC3)n2)cc1	·	8.4%	2.1	-0.4	-6.9
O=C(CN1CCN(Cc2ccc(Cl)cc2)CC1)N1CCc2ccccc21	·	·	·	0.9	-8.1
COc1cc(NC(=O)COc2ccc(Cl)cc2)ccc1-c1cc2ccccc2oc1=O	-16.7	4.5%	-16.6	-0.2	42.2
CC1(C)CC(=O)C(C=NC2CC(C)(C)NC(C)(C)C2)=C(O)C1	-13.2	-3.3%	-3.6	0.2	64.9	Arbovirus inh repeat=-1.1
CCN1CCC(NC(=O)Nc2ccc(F)cc2)CC1	·	1.2%	0.8	-0.6	-6.0
Cn1c(=O)c([N+](=O)[O-])c(NCC(O)c2ccccc2)c2ccccc21 (stereo unspecified)	18.2	9.9%	7.3	-0.2	2.1
O=C(Cc1cccc2ccccc12)Nc1ccccc1C(=O)O	-36.4	0.6%	24.1	2.7	10.6
Cc1ccc(-c2cc(Cc3ccc(F)cc3)c(=O)[nH]n2)cc1	·	-3.2%	·	4.7	4.8
O=C(Nc1ccncc1)c1cc(F)cc(F)c1	16.3	1.9%	-5.3	0.8	-1.6
CCC(=O)Nc1sc2c(c1C#N)CCCCC2	-18.1	5.0%	-8.0	0.4	20.8
c1ccc(-c2cn3c(n2)CCC3)cc1	-13.6	1.9%	4.6	-0.5	-1.6
Cc1cccc(N2CCN(S(=O)(=O)c3c(C)nc4scc(C)n4c3=O)CC2C)c1 (stereo unspecified)	·	·	·	-1.7	0.3
CC(C)OCCCN1CC(=O)N2C(c3cccc([N+](=O)[O-])c3)c3[nH]c4ccccc4c3C[C@H]2C1=O (stereo partly specified)	·	·	·	10.4	14.6
Nc1[nH]n(-c2ccccc2)c(=O)c1N=Nc1ccccc1	·	-8.0%	·	2.7	-4.5
CCn1c(SCC(=O)NC2CC2)nnc1-c1ccc(OC)cc1	·	·	·	0.2	3.7
CC1CCCCN1C(=O)CN(C)S(=O)(=O)c1cccc2nsnc12 (stereo unspecified)	·	·	·	2.6	1.2
CCCCC(=O)N1C/C=C\C(c2ccc(OC)cc2)N(Cc2ccc(F)cc2)C(=O)[C@H]1Cc1ccccc1 (stereo partly specified)	·	10.8%	·	10.4	-10.7
CCN(CC)S(=O)(=O)c1cc(C(=O)OCC(=O)Nc2ccc(-c3nc4ccc(C)cc4s3)cc2)ccc1F	-23.2	-2.8%	-7.7	0.3	-2.6
Cc1ccc(C(C(=O)NC2CCCCC2)N2CCCC2)cc1 (stereo unspecified)	-24.8	-11.4%	6.1	1.2	8.3	Arbovirus inh repeat=2.2
O=C(NCCSCc1c(F)cccc1Cl)Nc1ccccc1	·	·	·	-1.5	-9.7
COc1ccc(/C=C/C(=O)c2cc3cccc(OC)c3oc2=O)cc1	·	·	9.2	-8.0	67.6
c1ccc(-n2ncc3c2ncn2nc(-c4ccco4)nc32)cc1	-37.8	-9.8%	-5.6	2.8	7.9
(further entries)
SMILES	YopH inh	Mtb growth	Arbovirus inh	RecA splice inh	Mtb betalactam	others
Cc1nn(C)c(C)c1/C=N/O	-23.2	-13.0%	-1.9	1.3	-18.2
CCN(CCNC(=O)CCCn1nc(C)n2c(cc3sccc32)c1=O)c1ccccc1	-26.1	1.8%	7.8	-6.6	-4.7	Arbovirus inh repeat=-2.1
COc1ccc(NC(=O)c2cccc(S(=O)(=O)NCc3ccco3)c2)c(OC)c1	·	·	·	-0.4	-6.0
CN(c1ccc(C(=O)NC2CC2)cc1)S(=O)(=O)c1ccccc1	-20.7	2.0%	10.2	1.3	2.3
NC(=O)COc1ccc(/C=N\NC(=O)c2ccc(-c3ccccc3)cc2)cc1	·	·	·	-1.2	-1.1
COc1cc(C)ccc1OCCCCOc1ccccc1C(C)=O	-22.9	8.5%	26.3	12.9	1.2
COc1ccc(/C=C2\CCc3ccccc3C2=O)cc1OC	-34.6	4.4%	12.0	9.2	92.0
CCN(CC)C(=O)Nc1ccc(Br)cc1	·	-0.1%	8.4	5.8	-4.2
CCNc1nc(NCC)n2c(SCC(=O)Nc3ccccc3Cl)nnc2n1	·	·	·	1.2	-7.3
O=C(O)c1cccc(NC(=S)NC(=O)c2ccc3ccccc3c2)c1	·	·	·	-0.4	-7.8

Sorted by heavy-atom count (rising): some entries from above
SMILES	YopH inh	Mtb growth	Arbovirus inh	RecA splice inh	Mtb betalactam	others
CCNc1nc(NCC)n2c(SCC(=O)Nc3ccccc3Cl)nnc2n1	·	·	·	1.2	-7.3
NC(=O)COc1ccc(/C=N\NC(=O)c2ccc(-c3ccccc3)cc2)cc1	·	·	·	-1.2	-1.1
COc1ccc(NC(=O)c2cccc(S(=O)(=O)NCc3ccco3)c2)c(OC)c1	·	·	·	-0.4	-6.0
CCN(CCNC(=O)CCCn1nc(C)n2c(cc3sccc32)c1=O)c1ccccc1	-26.1	1.8%	7.8	-6.6	-4.7	Arbovirus inh repeat=-2.1
